# Assay outcomes from PubChem.
# HCMV UL50-53 inh – inhibitors of HCMV UL50-UL53 nuclear egress complex interaction; HTRF UL50-UL53 interaction, normalized percent inhibition; AID 1918969; 190,000 tested, 0.15% active; inhibition, % (concentration not given with the values);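 active = both replicates at 50% or more, plus weaker picks with an unusually low signal ratio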;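 note: stock transfer was 100 nL into about 20 µL; 0% = negative control wells and 100% = wells with untagged competitor protein; inactives centre near -12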
# GIV Gai3 FP – inhibitors of GIV GBA-motif binding to rat Galpha-i3; percent of control (FP), % (test concentration not listed); AID 1224905; Galpha-i3/FITC-GIV peptide fluorescence polarization, 90 min; active compounds read low; scaled: aluminum fluoride 0%, vehicle 100%; 210,000 tested, 0.42% active; P08753;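 active = replicate mean at 85% of control or lower, very high polarization wells dropped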;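 note: lower values mean more displacement of the GIV peptide from Galpha-i3; wells of about 15 µL received 100 nL stock; the first replicate is given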
# Target sequence (P08753 whole entry, looked up): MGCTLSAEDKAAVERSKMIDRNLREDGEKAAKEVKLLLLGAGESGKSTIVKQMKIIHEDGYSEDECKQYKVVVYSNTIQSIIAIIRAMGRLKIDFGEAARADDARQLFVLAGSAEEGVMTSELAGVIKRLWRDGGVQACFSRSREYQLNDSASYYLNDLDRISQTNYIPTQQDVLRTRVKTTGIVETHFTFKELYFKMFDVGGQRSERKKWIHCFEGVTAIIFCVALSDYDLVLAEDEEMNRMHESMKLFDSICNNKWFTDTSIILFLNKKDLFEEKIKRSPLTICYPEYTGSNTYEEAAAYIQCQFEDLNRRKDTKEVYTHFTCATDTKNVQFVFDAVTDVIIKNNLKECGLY
# Sa growth inh – inhibitors of Staphylococcus aureus growth at 42 °C. relative growth, % (no concentration beside the values). S. aureus RN4220 growth, OD600, 20 h; active compounds read low. AID 720641. 170,000 tested, 0.53% active;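 active = growth at 42 °C up to 50% and 20 or more points under that at 30 °C, or under 10% at both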;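 note: 300 nL library stock went into each well; scaled to the means of positive and negative controls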
# Sa growth inh second temp – further read-out of Sa growth inh, marked with its call; relative growth, %; measured here: growth at 30 °C;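 optical density after 20 h as mean of two plates; 100% = untreated growth and lower means inhibition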
# Active calls of the source: *; · = no result given; & = joins results of further samples. An unsorted share of the library; about 0.83% have a hit in one of these screens.
# Codes – A = HCMV UL50-53 inh; B = GIV Gai3 FP; C = Sa growth inh; D = Sa growth inh second temp
mol: Cc1c(C(=O)N2CCN(c3ccccc3F)CC2)sc2nc3n(c(=O)c12)CCCC3
  A = ·; B = 101; C = 103; D = 91
mol: COc1ccc(NC(=O)C(NS(=O)(=O)c2ccc3c(c2)CCCC(=O)N3)C(C)C)c(OC)c1 (stereo unspecified)
  A = ·; B = 102; C = 93; D = 93
mol: CCN1CCN(S(=O)(=O)c2ccc(Cl)cc2)c2cccnc21
  A = -22; B = 104; C = ·; D = ·
mol: CCCCn1c(SCc2nnc(-c3cccs3)o2)nc2cc(S(N)(=O)=O)ccc21
  A = -31; B = ·; C = 93; D = 74
mol: CCNC(=O)C1Cc2ccccc2N1C(C)=O (stereo unspecified)
  A = -20; B = 104; C = ·; D = ·
mol: O=C(CSc1nc2ncccc2o1)Nc1ccc(Cl)cc1F
  A = ·; B = 103; C = 84; D = 89
mol: Cn1ccc(=O)c2ccccc21
  A = -12; B = 104; C = 100; D = 91
mol: CC(C)(C)c1ccc(OCNC(=S)NC(=O)c2cncc(Br)c2)cc1
  A = ·; B = 103; C = 97; D = 86
mol: Cc1ccc(S(=O)(=O)C(CNC(=O)c2ccc(F)c(F)c2)c2ccco2)cc1 (stereo unspecified)
  A = ·; B = 98; C = 103; D = 86
mol: COCc1nnc(NC(=O)COc2ccc(-c3noc(-c4ccccc4)n3)cc2OC)s1
  A = -23; B = 108; C = ·; D = ·
mol: O=C(Cn1c(SCc2ccccc2F)nc2cccnc21)Nc1ccc(F)c(Cl)c1
  A = ·; B = 97; C = 108; D = 86
mol: NC(=O)c1c(N)sc2c1CCCCC2
  A = -6; B = ·; C = 81; D = 84
mol: Cc1cc(C)n(CCCNS(=O)(=O)c2cccs2)n1
  A = -25; B = ·; C = 70; D = 95
mol: CCCn1c(=N)c(C(=O)NCc2cccnc2)cc2c(=O)n3cccc(C)c3nc21
  A = -102; B = 109; C = 117; D = 89
mol: O=C(CCc1nc2cccnc2n1Cc1ccccc1)N1CCCCC1
  A = ·; B = 101; C = 96; D = 93
mol: O=[N+]([O-])c1cc(-c2nc(-c3ccccn3)no2)ccc1NCc1ccccc1
  A = -3; B = 100; C = 98; D = 89
mol: CC1(C)C(=O)N(CC(=O)N2CCCCC2)c2ccc(S(=O)(=O)N3CCCC3)cc21
  A = -33; B = 106; C = ·; D = ·
mol: COc1ccc(S(=O)(=O)NCc2cccn2Cc2ccccc2C)cc1
  A = -6; B = 114; C = 112; D = 97
mol: COCc1cc(=O)[nH]c(SCCS(=O)(=O)c2ccc(Cl)cc2Cl)n1
  A = -8; B = 105; C = 109; D = 85
mol: Cc1c(Cl)cccc1-n1ncc(C(=O)Nc2ccc(Br)cc2F)c1C1CCNCC1
  A = ·; B = 94; C = 102; D = 93
mol: CCc1cccc(NC(=O)CCNS(=O)(=O)c2ccc3c(c2)CCN3C(C)=O)c1
  A = -12; B = 105; C = 112; D = 87
mol: O=C(O)c1ccc2c(c1)nnn2C1CCCCC1
  A = 12; B = 108; C = 81; D = 88
mol: CSc1ccc(/C=N/O)cc1
  A = -10; B = ·; C = 90; D = 93
mol: Cc1ccc(OCCSc2nc3ccccc3n2CC(=O)N2CCCCC2)cc1C
  A = -22; B = 99; C = 102; D = 84
mol: CCN(CC(=O)Nc1ccc2c(c1)OCCO2)CC(=O)Nc1cc(C)on1
  A = -12; B = ·; C = 74; D = 90

# 3 entries drawn at random from the list so far, as already listed:
# Codes – A = HCMV UL50-53 inh; B = GIV Gai3 FP; C = Sa growth inh; D = Sa growth inh second temp
mol: CCCCn1c(SCc2nnc(-c3cccs3)o2)nc2cc(S(N)(=O)=O)ccc21
  A = -31; B = ·; C = 93; D = 74
mol: O=C(CSc1nc2ncccc2o1)Nc1ccc(Cl)cc1F
  A = ·; B = 103; C = 84; D = 89
mol: O=C(Cn1c(SCc2ccccc2F)nc2cccnc21)Nc1ccc(F)c(Cl)c1
  A = ·; B = 97; C = 108; D = 86

# Further compounds.
# Codes – A = HCMV UL50-53 inh; B = GIV Gai3 FP; C = Sa growth inh; D = Sa growth inh second temp
mol: COc1ccc2cc(-c3csc(-c4cccnc4)n3)ccc2c1
  A = 1; B = ·; C = 93; D = 91
mol: O=C1CCCN2N=C(SCC(=O)Nc3cccc(F)c3)SC2=N1
  A = -3; B = 108; C = ·; D = ·
mol: O=C(NCCOc1ccccc1)c1ccc2c(c1)OCO2
  A = -7; B = 106; C = 112; D = 82
mol: COc1ccc(-c2nnco2)cc1OC
  A = 0; B = 98; C = 87; D = 89
mol: c1ccc(-c2ccnc(-c3cc(-c4ccccc4)ccn3)c2)cc1
  A = -18; B = ·; C = 98; D = 89
mol: CCOc1ccc(N2C(=O)C3C4C=CC(CC4)C3C2=O)c([N+](=O)[O-])c1 (stereo unspecified)
  A = -37; B = 102; C = ·; D = ·
mol: CCOCCc1nn2c(=O)cc(COC(=O)C(CC)c3ccccc3)nc2s1 (stereo unspecified)
  A = ·; B = 96; C = 81; D = 87
mol: CCC(Cn1nnc2ccccc2c1=O)NC(=O)Nc1cc(OC)cc(OC)c1 (stereo unspecified)
  A = -38; B = 93; C = 89; D = 84
mol: Cc1c(C(=O)NC2CCCCC2)oc2ccccc12
  A = 2; B = 102; C = 90; D = 79
mol: CCOC(=O)N1CCC(N2Cc3cccc(C(=O)N4CCN(C(=O)c5ccco5)CC4)c3C2=O)CC1
  A = 3; B = 101; C = 101; D = 93
mol: COc1ccccc1CNC(=O)CCC(=O)N1CC(C)Sc2ccccc21 (stereo unspecified)
  A = ·; B = 107; C = 80; D = 94
mol: O=C(O)C1CC(=O)N(Cc2ccccc2)C1 (stereo unspecified)
  A = -23; B = ·; C = 111; D = 89
mol: Cc1nc2ccn(Cc3ccccc3)c(=O)c2cc1C(=O)NCc1ccccc1F
  A = ·; B = 104; C = 119; D = 93
mol: Cc1nnsc1C(=O)Nc1nn(C)c2cccc(F)c12
  A = -2; B = 100; C = 114; D = 95
mol: Cc1ccc(Cl)cc1NC(=O)CO/N=C(\N)c1ccccc1
  A = -39; B = ·; C = 95; D = 86
mol: CNC(=O)c1oc2c(c1C)-c1nn(Cc3cccc(Cl)c3)cc1CC2
  A = -40; B = 94; C = 72; D = 70
mol: Cc1cc2nc(C)c(=O)n(CCC(=O)N3CCN(c4ccccn4)CC3)c2cc1C
  A = -26; B = 106; C = ·; D = ·
mol: O=C(CCC(=O)N1CCSc2ncccc21)NCc1cccc(Cl)c1
  A = -7&18; B = 95&103; C = 97; D = 97
mol: CCCc1cc(Nc2ccc(Br)cc2)n2nc(-c3ccco3)nc2n1
  A = -15; B = 105; C = ·; D = ·
mol: CC(C)NC(=O)CC1Nc2ccccc2NC1=O (stereo unspecified)
  A = -2; B = ·; C = 120; D = 99
mol: N#CCC(Cc1ccccc1)c1ccco1 (stereo unspecified)
  A = -8; B = 107; C = 96; D = 76
mol: CC(=O)OCC(=O)[C@@]1(O)CCC2C3CCC4=CC(=O)CC[C@]4(C)C3C(=O)C[C@@]21C (stereo partly specified)
  A = -12; B = ·; C = 93; D = 89
mol: COc1cccc2c1OC1=C(C(=O)CC(C)(C)C1)C2CC(=O)c1ccc(O)cc1 (stereo unspecified)
  A = -38; B = ·; C = 89; D = 63
mol: OC1CCN(Cc2nnnn2Cc2ccccc2)CC1
  A = 3; B = 103; C = 91; D = 92
mol: Cc1occc1-c1cc(N)n(-c2cccc(Cl)c2Cl)n1
  A = -3; B = 98; C = 110; D = 91

# 7 of the entries above in order of their number in Sa growth inh second temp, ascending.
mol | Sa growth inh second temp
CNC(=O)c1oc2c(c1C)-c1nn(Cc3cccc(Cl)c3)cc1CC2 | 70
Cc1c(C(=O)NC2CCCCC2)oc2ccccc12 | 79
O=C(NCCOc1ccccc1)c1ccc2c(c1)OCO2 | 82
CCC(Cn1nnc2ccccc2c1=O)NC(=O)Nc1cc(OC)cc(OC)c1 (stereo unspecified) | 84
O=C(O)C1CC(=O)N(Cc2ccccc2)C1 (stereo unspecified) | 89
COc1ccccc1CNC(=O)CCC(=O)N1CC(C)Sc2ccccc21 (stereo unspecified) | 94
CC(C)NC(=O)CC1Nc2ccccc2NC1=O (stereo unspecified) | 99

# Single entries from the entries so far:
# Value of COc1ccccc1CNC(=O)CCC(=O)N1CC(C)Sc2ccccc21 (stereo unspecified) under Sa growth inh second temp: 94
# Value of CCCc1cc(Nc2ccc(Br)cc2)n2nc(-c3ccco3)nc2n1 under GIV Gai3 FP: 105
# Value of COc1ccc(-c2nnco2)cc1OC under Sa growth inh: 87

# Other entries follow.
# Codes – A = HCMV UL50-53 inh; B = GIV Gai3 FP; C = Sa growth inh; D = Sa growth inh second temp
mol: CCCc1cnc(Oc2ncnc3cc(Cl)ccc23)nc1
  A = -26; B = 97; C = 92; D = 82
mol: O=C(Nc1ccc(Cl)c(C(F)(F)F)c1)c1nc2ccccc2nc1N1CCCCC1
  A = ·; B = 109; C = 100; D = 85
mol: COc1ccc(C(=O)Nn2c(-c3cc(OC)c(OC)c(OC)c3)nc3ccccc3c2=O)cc1OC
  A = -20; B = 102; C = ·; D = ·
mol: O=C(CSc1nnc2ccccn12)c1ccc(S(=O)(=O)N2CCCCC2)cc1
  A = -34; B = ·; C = 99; D = 93
mol: COc1cccc(C2C3=C(CC(c4ccc(O)c(OC)c4)CC3=O)Nc3onc(C)c32)c1 (stereo unspecified)
  A = -20; B = 107; C = ·; D = ·
mol: CCCOc1ccc(/C=C/C(=O)Nc2ncn[nH]2)cc1OC
  A = -8; B = ·; C = 93; D = 78
mol: CCCN(C(=O)/C=C/c1ccc(N(C)C)cc1)C1CCS(=O)(=O)C1 (stereo unspecified)
  A = 0; B = ·; C = 99; D = 94
mol: CN1CCN(C(=O)C2=Cc3ccccc3OC2)CC1
  A = -47; B = 101; C = ·; D = ·
mol: COc1ccccc1Nc1nc(-c2ccccc2F)nc2ccccc12
  A = ·; B = 105; C = 72; D = 73
mol: Clc1ccccc1N1CCN(c2nccn3nc(-c4ccccc4)cc23)CC1
  A = 2; B = 100; C = ·; D = ·
mol: O=C(CSc1cccc[n+]1[O-])c1ccc(OC(F)F)cc1
  A = -19; B = ·; C = 81; D = 83
mol: O=C(Cc1c[nH]c2ccccc12)OCC(=O)N1CCCC1=O
  A = -14; B = ·; C = 96; D = 100
mol: O=C(CC1SC(=O)N(CN2CCOCC2)C1=O)Nc1ccccc1 (stereo unspecified)
  A = -36; B = 106; C = ·; D = ·
mol: O=[N+]([O-])c1c(NCc2ccccc2)cc(N2CCCCC2)c2nonc12
  A = -16; B = 101; C = ·; D = ·
mol: CC1CN(C/C(=N/O)C23CC4CC(CC(C4)C2)C3)CC(C)O1 (stereo unspecified)
  A = 8; B = ·; C = 109; D = 99
mol: Cc1ccc(C2=N/C(=C\c3ccco3)C(=O)O2)cc1
  A = ·; B = 104; C = 124; D = 99
mol: CC1CC(Nc2ccccc2)c2ccccc2N1C(=O)C(C)(C)C (stereo unspecified)
  A = 7; B = 109; C = ·; D = ·
mol: CC(=O)N(c1ccccc1)C1SC(=O)N(c2ccccc2)C1=O (stereo unspecified)
  A = -9; B = 108; C = 87; D = 85
mol: CCOC(=O)C1CCN(C(=O)COC(=O)c2ccc(O)cc2)CC1
  A = -21; B = ·; C = 103; D = 98
mol: CCc1cccc2c(C(=O)COC(=O)C3=NNC(=O)CC3)c[nH]c12
  A = -21; B = ·; C = 95; D = 93
mol: Cc1ccc(-c2nc(C#N)c(NCCN(C)C)o2)cc1
  A = -8; B = 100; C = 106; D = 99
mol: COc1cc(CN2CCN(S(=O)(=O)c3ccccc3)CC2)cc(OC)c1O
  A = -30; B = 105; C = 120; D = 83
mol: CCOc1ccccc1C(=S)N1CCOCC1
  A = -12; B = 98; C = 107; D = 95
mol: CN(C)c1cc2c(cc1NC(=O)CCC1CCCC1)n(C)c(=O)c(=O)n2C
  A = -14; B = 104; C = ·; D = ·
mol: COc1ccc(-c2[nH]c3ccccc3c2CCC(=O)O)cc1
  A = -10; B = ·; C = 94; D = 75

# Compound profiles (already shown):
# Cc1ccc(S(=O)(=O)C(CNC(=O)c2ccc(F)c(F)c2)c2ccco2)cc1 (stereo unspecified) across the screens: HCMV UL50-53 inh: ·; GIV Gai3 FP: 98; Sa growth inh: 103; Sa growth inh second temp: 86
# CCOC(=O)N1CCC(N2Cc3cccc(C(=O)N4CCN(C(=O)c5ccco5)CC4)c3C2=O)CC1 across the screens: HCMV UL50-53 inh: 3; GIV Gai3 FP: 101; Sa growth inh: 101; Sa growth inh second temp: 93

# The results go on:
# Codes – A = HCMV UL50-53 inh; B = GIV Gai3 FP; C = Sa growth inh; D = Sa growth inh second temp
mol: COc1cc(C2C(C(=O)Nc3ccc(Br)cn3)=C(C)NC3=C2C(=O)CCC3)ccc1OCc1ccccc1 (stereo unspecified)
  A = -10; B = 105; C = ·; D = ·
mol: CC(OC(=O)C1=NNC(=O)CC1)C(=O)Nc1ccc(Oc2ccccc2)cc1 (stereo unspecified)
  A = -27; B = ·; C = 124; D = 93
mol: CCc1cc(=O)[nH]c(N2CCCCC2)n1
  A = -29; B = 102; C = 85; D = 85
mol: COC(=O)c1ccc(NCC(=O)N2CCCCCC2)cc1
  A = -3; B = ·; C = 106; D = 93
mol: CC1(C)CC(=O)C(C=Nc2ncnc3nc[nH]c23)=C(O)C1
  A = -12; B = ·; C = 26; D = 16
mol: CN(N)C(=S)Nc1ccccc1
  A = -8; B = ·; C = 111; D = 90
mol: COc1ccc(OC)c(Nc2nc3ccccc3n3cnnc23)c1
  A = -9; B = 102; C = 102; D = 77
mol: COc1ccccc1NC(=O)/C=C1\NC(=O)CS1
  A = -17; B = ·; C = 93; D = 89
